gsp antag – antagonizes gsp, the McCune-Albright syndrome mutation. gsp-mutant cells, cAMP HTRF, 30 min; control for the full effect not named in the record. Potency, µM (highest dose often 76.9 µM), inactives show at the highest dose activity change, negative = inhibition, hits mostly inhibitors. 340,000 compounds, 0.4% hits. AID 624288; active = falling curve of any shape with a large fitted effect; inconclusive = falling curve, mostly with a smaller effect; inactive = flat or rising curve; cell line not stated here;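 note: intracellular cAMP measured with PDE inhibitor Ro 20-1724 present during compound exposure; potency is the fitted concentration of half-maximal effect; % is set by controls: 0 for no effect and ±100 for the full control effect; nearly all actives have a fitted effect of over 65% in size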
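HTRF cAMP measurement after 30 min RT detection following 30 min, 37C compound treatment alongside […] (added as 300 uM solution) in G418-selected cells seeded at 2000/well and grown 16–24 h.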
D2 PAM – potentiates the human D2 dopamine receptor allosterically | P14416 | 360,000 compounds, 0.23% hits | potentiation, % (concentration not given with the values) | DiscoveRx D2 beta-arrestin cells, luminescence, 90 min; 100% = 57 uM dopamine signal; active = potentiation of 50% or more; inconclusive = 30% to 50%; inactive = 30% or less;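 note: tested on top of an EC20 dose of dopamine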
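PathHunter beta-arrestin assay in DiscoveRx D2 cells. Compounds were added with an EC20 of dopamine (50 nM final) for 90 min at 37 deg C. Luminescence was read 1 h after detection reagent, with 57 uM dopamine as the EC100 control.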
Sfp inh – inhibitors of Bacillus subtilis Sfp phosphopantetheinyl transferase; 310,000 compounds, 3.5% hits; Potency, µM, for the others: max response, negative = inhibition, actives largely listed as inhibitors; Biochemical Sfp PPTase activity, qHTS; Q9F4F7; active = well fitted inhibition curve with a large enough effect; inconclusive = small, poorly fitted or top-dose-only effect, or another doubt; inactive = no such curve, though single readings can be large or run the other way;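 note: the enzyme is Sfp with the accession as filed and its product quenches rhodamine fluorescence; potency is the fitted concentration of half-maximal effect; 0% = enzyme reaction without inhibitor and -100% = no enzyme wells; top concentration of the series not given in the record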
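Step 1, compound plus 15 nM Sfp-PPTase, 15 min, room temperature. Step 2, add rhodamine-CoA (5 uM) and BHQ-2-YbbR (12.5 uM). Step 3, read 525/598 nm fluorescence at 0 and 30 min.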
gsp agonist – gsp mutant agonism; gsp mutant cells, cAMP HTRF, 30 min; control for the full effect not named in the record; Potency, µM (top dose mostly 76.9 µM), inactives show top-dose activation (cAMP increase), hits mostly activators; 340,000 compounds, 0.13% hits; AID 624287; active = well fitted activation curve with a large enough effect; inconclusive = small, poorly fitted or top-dose-only effect, or another doubt; inactive = no such curve, though single readings can be large or run the other way; cell line not stated here;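 note: phosphodiesterase inhibitor Ro 20-1724 added with compounds to block cAMP breakdown; potency is the fitted concentration of half-maximal effect; nearly all actives have a fitted effect of over 60% in size; about a fifth of the inactives were tested at one dose only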
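Cells in DMEM/10% FBS with G418 were pretreated with compounds in DMSO plus […] (300 uM stock) for 30 min at 37C. cAMP was measured by HTRF (cAMP-d2 plus anti-cAMP antibody-K) after 30 min at room temperature.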
TRPV1 PAM – human TRPV1 potentiation | Q8NER1 | TRPV1-expressing cells, Fluo-8 calcium influx, capsaicin EC20 potentiation; host cell line not named in the record; control for the full effect not named in the record | potentiation, % at 8.33 µM | AID 540277 | 320,000 compounds, 0.02% hits; active means potentiation above 80%; inconclusive means 30% to 80%; inactive means below 30%; note: 0% is about no effect
Target sequence (Q8NER1 whole entry, looked up): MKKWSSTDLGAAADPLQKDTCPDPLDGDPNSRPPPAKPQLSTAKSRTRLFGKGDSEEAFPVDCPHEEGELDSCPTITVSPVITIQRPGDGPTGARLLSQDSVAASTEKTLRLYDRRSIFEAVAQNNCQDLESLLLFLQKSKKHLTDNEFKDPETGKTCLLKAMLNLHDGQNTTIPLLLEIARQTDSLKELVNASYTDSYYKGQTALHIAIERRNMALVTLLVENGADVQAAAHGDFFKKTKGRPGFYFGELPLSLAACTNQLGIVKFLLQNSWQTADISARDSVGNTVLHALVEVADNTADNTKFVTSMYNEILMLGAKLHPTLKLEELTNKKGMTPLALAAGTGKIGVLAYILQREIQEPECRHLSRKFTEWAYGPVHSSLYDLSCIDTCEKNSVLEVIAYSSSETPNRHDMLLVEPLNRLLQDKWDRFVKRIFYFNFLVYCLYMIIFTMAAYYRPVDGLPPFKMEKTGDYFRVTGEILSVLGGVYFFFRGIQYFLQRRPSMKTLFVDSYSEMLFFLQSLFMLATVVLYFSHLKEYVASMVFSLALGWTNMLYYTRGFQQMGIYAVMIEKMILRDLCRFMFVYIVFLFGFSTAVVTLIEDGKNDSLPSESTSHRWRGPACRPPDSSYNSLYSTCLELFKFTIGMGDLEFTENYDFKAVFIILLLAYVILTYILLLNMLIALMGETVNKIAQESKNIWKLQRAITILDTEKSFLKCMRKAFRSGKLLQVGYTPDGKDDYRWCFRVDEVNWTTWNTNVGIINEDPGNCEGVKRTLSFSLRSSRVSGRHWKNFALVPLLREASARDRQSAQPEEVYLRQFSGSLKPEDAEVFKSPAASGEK
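Fluo-8 calcium influx in TRPV1-expressing cells, kinetic read (ex 480/em 520 nm). Compound added and read 3 min for agonist activity, followed by capsaicin at EC20 final and 2 min further read for enhancement.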
ClpP mod – qHTS Assay for Activators of ClpP; ATP-dependent Clp protease proteolytic subunit (Bacillus subtilis (strain 168)), P80244; purified B. subtilis ClpP, FRET peptide cleavage, 20 min; Potency, µM (top dose mostly 57.5 µM), inactives show at the top dose activity change, negative = active; 340,000 compounds, 1.9% hits; AID 651965, 2013; active = well fitted falling curve with a large enough effect; inconclusive = small, poorly fitted or top-dose-only effect; inactive = no such curve, though single readings can be large or run the other way; note: potency is the fitted concentration of half-maximal effect; the source files actives as falling curves though it sought activators and does not explain the sign; nearly all actives have a fitted effect of over 65% in size; many hits overshoot -100%
Target sequence (P80244 whole entry, looked up): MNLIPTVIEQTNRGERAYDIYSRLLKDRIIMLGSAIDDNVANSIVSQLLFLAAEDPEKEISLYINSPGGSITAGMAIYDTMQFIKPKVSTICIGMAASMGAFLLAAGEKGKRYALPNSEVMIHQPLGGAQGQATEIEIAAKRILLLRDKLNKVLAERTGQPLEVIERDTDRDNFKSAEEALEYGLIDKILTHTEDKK
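FRET quenching reversal measured ClpP activation: 10 microg/mL B. subtilis ClpP at pH 8 with the FRET-FV decapeptide, read at 430 nm after 320 nm excitation. The 20-min minus 0-min signal was scaled between DMSO/no-enzyme wells and ADEP (5.8 microM final).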
Menin-MLL FL inh – menin-MLL binding inhibition, fluorescein peptide; AID 1766; Fluorescence polarization, fluorescein-MLL peptide displacement from menin; FP activity change, % at 61.4 µM; 290,000 tested, under 10 active; inconclusive = falling polarisation curve, or a change in total fluorescence; inactive = total fluorescence flat and polarisation flat or rising; no compound was filed as active; the % refers to the polarisation; negative = inhibition;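 note: % of control where 0% means no effect; inhibitors lower the polarisation; unlabelled MLL peptide was the positive control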
Starred values were filed as active, the others as inactive; ? = inconclusive; / = no result given; & = joins results of further samples; [ ] = another dose, or the depositor's remark. The order is random, and some 5.1% of all compounds hit somewhere here.

SMILES | gsp antag | D2 PAM | Sfp inh | gsp agonist | TRPV1 PAM | ClpP mod | Menin-MLL FL inh
Cc1ccc(NC(=O)COc2cccc(-n3cnnn3)c2)cc1S(=O)(=O)N1CCOCC1 | -27% | -3 | / | -7% | -1 | -1.3% | /
Cc1ccc(C(=O)NCCNS(=O)(=O)c2ccccc2)cn1 | -9% | 3 | 28% | 4% | 0 | / | 0.8
CC(C)c1ccc(N(CC(=O)NC2CCCCC2)C(=O)CNC(=O)c2ccco2)cc1 | -10% | -8 | 13% | 10%[15.4 µM] | 1 | 1.1% | -2.2
CN(C(=O)CSc1ccccc1C(=O)O)C1CCCCC1 | -17% | -8 | -1% | 24% | 3 | 0.8% | 4.9
CCCn1c(CN2CCN(C(=O)OCC)CC2)nc2cc(NC(C)=O)ccc21 | -10% | -9 | 0% | -6% | ? | -1.8% | -1.4
CCCCN(Cc1ccc(C(=O)N[C@H](C(=O)O)C(C)C)cc1)C(=O)C(c1ccccc1)c1ccccc1 | -1% | -15 | / | -11%[15.4 µM] | / | 1.2% | /
Cc1ccc(NS(=O)(=O)N2CCOCC2)cc1 | 10% | 7 | 15% | 7% | 7 | 0.8% | /
O=C(Nc1nnc(-c2cccs2)o1)c1cc(-c2ccccc2)nc2ccccc12 | -18% | -2 | 8% | 8% | 7 | -11% | 1.2
COCCCNC(=O)CCc1nc2cccnc2n1Cc1ccc(OC)cc1 | 4% | -10 | 18% | -48%[inhibitor] | 4 | -3.7% | 1.5
CC1CC(N(C(=O)c2ccco2)c2ccccc2)c2ccccc2N1C(=O)c1ccco1 (stereo not given) | -2% | 0 | 14% | -24% | -4 | 4.4% | 3.6
CCCCCCCC(=O)NC1=NC(=O)C(C)(C)S1 | -5% | -18 | 5% | 11% | -15 | -0.3% | -1.3
CCOC(=O)C1(Cc2ccccc2)CCCCCC1=O (stereo not given) | -5% | -12 | / | ? | / | -0.7% | /
COc1ccc(-n2nc(C(=O)NCC(=O)Nc3cccc(Cl)c3)c3ccccc3c2=O)cc1 | ? | -2 | -1% | ? | 7 | / | 3.1
O=S(=O)(c1cccc(Cl)c1)N1CCSc2ccccc21 | -10% | 2 | / | ? | 9 | 0.6% | /
CC(C)c1ccc(C(=O)NCCCN2CCOCC2)cc1 | 6% | -22 | -1% | 12% | -30 | 0.1% | -0.6
COc1ccc(CNC(=O)CCNS(=O)(=O)c2ccc(C)cc2)cc1 | 5% | -13 | -5% | -41%[inhibitor] | ? | 0.4% | 1.0
O=C(NCCc1ccc(F)cc1)NC12CC3CC(CC(C3)C1)C2 | -15% | -4 | -7% | 30% | -20 | 0.2% | -1.4
O=C(COC(=O)CNC(=O)c1ccc(Br)cc1)NCCC1=CCCCC1 | -7% | -3 | 11% | -40%[inhibitor] | -3 | 0.3% | -2.9
CS(=O)(=O)N1CCCCC1CCN1CCCCC1 (stereo not given) | 8% | -16 | / | 9%[15.4 µM] | / | 28µM* | /
CCOc1ccccc1OCCCC(=O)N(CC)CC(=O)Nc1c(F)cccc1F | 0% | -3 | / | -13% | 7 | 1.6% | /
CC(=O)C(Cc1ccccc1)NC(=O)CN(C)Cc1ccccc1Cl (stereo not given) | 1% | -4 | 5% | 28% | -25 | / | 6.9
Cc1cccc(NC(=S)N/N=C/c2c[nH]c3ccccc23)c1 | 12% | -4 | 1% | 5% | 17 | -5.4% | 2.2
O=C(OCC(=O)N1CCCC1)c1ccccc1OCc1ccccc1 | -6% | -7 | 13% | -1% | -11 | -5.6% | 3.4
Cc1cccc(N2CC(C(=O)Nc3nc4ccc(S(C)(=O)=O)cc4s3)CC2=O)c1C (stereo not given) | -13% | -1 | -3% | 2%[15.4 µM] | -5 | / | -1.7
CC(OC(=O)Cc1cccc(C(F)(F)F)c1)C(=O)Nc1ccc(Cl)cn1 (stereo not given) | 10% | 4 | 1% | -2%[15.4 µM] | -10 | -28% | /
SMILES | gsp antag | D2 PAM | Sfp inh | gsp agonist | TRPV1 PAM | ClpP mod | Menin-MLL FL inh
COc1ccc(C(=O)COC(=O)CNC(=O)C2CCCCC2)c(OC)c1 | -10% | -16 | 5% | 18% | -12 | -1.5% | 3.8
COc1ccc(C(C)=O)cc1CSc1nnc(Nc2ccc(C)cc2)s1 | -17% | -5 | -2% | 10%[15.4 µM] | 5 | -0.6% | -0.6
COc1ccc(S(=O)(=O)N(CC(C)C)CC(C)C)c2cccnc12 | -18% | 2 | -1% | ? | / | 0.3% | 0.5
Cc1cccc(N2C(=O)C(Cl)=C(Nc3c(C)n(C)n(-c4ccccc4)c3=O)C2=O)c1C | 1% | -18 | 56µM* | ? | -4 | -1.4% | -0.8
C(=N\Nc1nnnn1-c1ccccc1)/c1ccncc1 | 11% | -33 | -4% | 14% | -4 | 1.0% | -1.7
CCOc1ccc(C2=CS/C(=C(\C#N)c3nnc4n3CCCCC4)N2CC)cc1 | ? | -6 | -6% | ? | 22 | -0.3% | -0.2
CC1(C)CC(=O)C2=C(C1)NC(SCC(=O)Nc1ccccc1)=C(C#N)C2c1ccco1 (stereo not given) | ? | -3 | 5% | 12%[15.4 µM] | -1 | 0.8% | 3.9
CCN(CC)S(=O)(=O)c1cccc(C(=O)NC2=NCCS2)c1 | 0% | -8 | 22% | -35%[inhibitor] | -18 | / | -3.3
N#C/C(=C\C1CC=CCC1)c1nc2ccccc2[nH]1 (stereo not given) | 1% | -3 | ? | -7% | 14 | 32µM* | 16
CCC(=O)n1nc(-c2cccnc2)nc1NCc1cccs1 | -16% | -14 | 12% | -6%[15.4 µM] | -15 | -3.8% | 4.1
CCC(CO)Oc1cc(NC(=O)c2ccccc2Cl)c2ncn(C(C)C)c2c1 (stereo not given) | 5% | 24 | / | / | / | -3.4% | /
Cc1ccc(CN(C(=O)c2sc3ccccc3c2Cl)C2CCS(=O)(=O)C2)cc1 (stereo not given) | -21% | -3 | 2% | -36%[inhibitor] | 0 | -1.1% | 0.1
O=C(CSc1nccc(=O)[nH]1)Nc1cc(C(F)(F)F)ccc1N1CCOCC1 | -9% | 3 | 1% | -22%[15.4 µM] | -2 | / | /
Cc1cc(C(=O)N2CCCC(Nc3ccc(F)cc3)C2)c(C)o1 (stereo not given) | 3% | -8 | 1% | -11% | -11 | -2.5% | -0.7
COc1ccc(N2CCN(C(=O)CCN3C(=S)NC(C)(C)CC3C)CC2)cc1 (stereo not given) | -20% | -22 | 25% | -3%[15.4 µM] | 9 | / | 4.8
Cc1ccc(C)c(S(=O)(=O)N2CCN(C(=O)c3cccn3C)CC2)c1 | 2% | -3 | / | -7% | -2 | -1.4% | /
COc1cc(OC)cc(-c2c(-c3cccs3)c3cc(-c4ccc(OC)c(F)c4)ccc3n2C)c1 | 5% | -3 | / | ? | -2 | 4.1% | /
CC(C)(C)OC(=O)NCCCC[C@@H](C(=O)N1CCN(C(=O)OC(C)(C)C)CC1)n1cc(C(CO)NC(=O)OC(C)(C)C)nn1 (stereo not given in full) | 5% | -1 | 13% | / | 27 | -1.4% | 3.1
Cc1cc(=O)c2ccc(C(F)(F)F)cc2[nH]1 | -16% | -10 | 13% | -16%[15.4 µM] | 14 | / | -1.1
CCOc1cc(CNn2cn[nH]c2=S)cc(Cl)c1OCc1ccccc1F | -19% | -12 | 7% | -7% | -2 | -1.7% | -0.3
Cc1ccc(C)c(NC(=O)COC(=O)Cn2c(C)csc2=O)c1 | -4% | -21 | / | -10% | ? | -8.1% | /
C=CCN(Cc1ccc(Cl)s1)C(=O)c1cc(S(=O)(=O)N2CCOCC2)ccc1F | -6% | -1 | / | 7% | -15 | -0.4% | /
CCOC(=O)c1cc(C)n(-c2c(C)n(C)n(-c3ccccc3)c2=O)c1C | 10% | -2 | -4% | 16% | 6 | -8.5% | 2.7
COc1ccc(-c2nc(-c3cccnc3)no2)cc1 | 10% | -7 | 7% | -5% | -3 | -1.5%&-3.7% | 5.8
CC[n+]1cc(C)ccc1/C=C/c1ccc(N(C)C)cc1 | ? | -34 | -7% | 25% | -2 | 0.6% | ?

Grouped by structure: the entries above with a COOH group.
SMILES | gsp antag | D2 PAM | Sfp inh | gsp agonist | TRPV1 PAM | ClpP mod | Menin-MLL FL inh
CN(C(=O)CSc1ccccc1C(=O)O)C1CCCCC1 | -17% | -8 | -1% | 24% | 3 | 0.8% | 4.9
CCCCN(Cc1ccc(C(=O)N[C@H](C(=O)O)C(C)C)cc1)C(=O)C(c1ccccc1)c1ccccc1 | -1% | -15 | / | -11%[15.4 µM] | / | 1.2% | /

New compounds follow
SMILES | gsp antag | D2 PAM | Sfp inh | gsp agonist | TRPV1 PAM | ClpP mod | Menin-MLL FL inh
COc1cc(/C=C/C(=O)O)cc(S(=O)(=O)NC2CCCC2)c1OC | 10% | -15 | 17% | -2% | 13 | 3.5% | 0.4
Cc1ccc(NC(=O)c2ccc(CSc3ccccn3)cc2)cc1 | -1% | -23 | -1% | 9% | -19 | -0.6% | 6.3
Brc1ccc(-c2nnc(-c3ccccc3Br)o2)cc1 | -1% | -15 | 50µM* | 0% | 7 | -11% | 5.0
Cc1ccc(C(=O)Nc2cccc(C(=O)O)c2)cc1S(=O)(=O)N1CCOCC1 | 0% | 5 | 16% | 13% | -2 | 0.5% | -0.3
O=C(CCCCn1c(=O)c2ccccc2n(Cc2ccccc2F)c1=O)NC1CCN(Cc2ccccc2)CC1 | -6% | -10 | 10% | -4%[15.4 µM] | -2 | / | 0.6
C/C(=N\NC(=O)c1ccc(CN2CCc3ccccc3C2)cc1)c1ccccc1O | -16% | -19 | 10% | 13% | 15 | / | 7.9
Cc1oc(CC(C)C)cc1C(=O)Nc1cccc2ccccc12 | 4% | 10 | 7% | 26% | -9 | -7.6% | 1.9
O=C(CNC(=O)c1ccccc1F)N/N=C/c1cc(Br)ccc1OCc1ccccc1 | 29% | -13 | 8% | -28% | -5 | -4.2% | 7.6
O=C(CC1C(=O)NCCN1CC1CCCCC1)NCc1cccc(F)c1F (stereo not given) | -7% | -5 | 3% | 8%[15.4 µM] | -6 | / | 4.0
CCC(=O)N1CCN(CCN=CC2=C(O)CC(C)(C)CC2=O)CC1 | -2% | -12 | 10% | -33% | 5 | 0.9% | -1.1
CCN(CC(=O)NC1CCS(=O)(=O)C1)C(=O)c1cc(OC)c(OC)c(OC)c1 (stereo not given) | 19% | -5 | / | 0% | -6 | 1.6% | /

Assay outcomes from PubChem BioAssay.
